Assay outcomes from PubChem.
KCNQ2 enhance: potentiators of rat KCNQ2 potassium channel. O88943. CHO-K1 KCNQ2, FluxOR thallium flux fluorescence; stronger effect = higher value. B-score at 10 µM. hit rate 0.54% among 310,000;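 active = fluorescence ratio B-score at least 3 SD of library B-scores, with initial fluorescence B-score within 3 SD, cut at about 5.3 in these data; same plate scores as AID 2156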;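 also: B-score of peak minus minimum over baseline fluorescence ratio after K+ and Tl+ stimulus; positive B-score means potentiation of KCNQ2 with more thallium influx and brighter signal; only the inactives scoring about 0 or higher are listed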
Target sequence (O88943 whole entry, looked up): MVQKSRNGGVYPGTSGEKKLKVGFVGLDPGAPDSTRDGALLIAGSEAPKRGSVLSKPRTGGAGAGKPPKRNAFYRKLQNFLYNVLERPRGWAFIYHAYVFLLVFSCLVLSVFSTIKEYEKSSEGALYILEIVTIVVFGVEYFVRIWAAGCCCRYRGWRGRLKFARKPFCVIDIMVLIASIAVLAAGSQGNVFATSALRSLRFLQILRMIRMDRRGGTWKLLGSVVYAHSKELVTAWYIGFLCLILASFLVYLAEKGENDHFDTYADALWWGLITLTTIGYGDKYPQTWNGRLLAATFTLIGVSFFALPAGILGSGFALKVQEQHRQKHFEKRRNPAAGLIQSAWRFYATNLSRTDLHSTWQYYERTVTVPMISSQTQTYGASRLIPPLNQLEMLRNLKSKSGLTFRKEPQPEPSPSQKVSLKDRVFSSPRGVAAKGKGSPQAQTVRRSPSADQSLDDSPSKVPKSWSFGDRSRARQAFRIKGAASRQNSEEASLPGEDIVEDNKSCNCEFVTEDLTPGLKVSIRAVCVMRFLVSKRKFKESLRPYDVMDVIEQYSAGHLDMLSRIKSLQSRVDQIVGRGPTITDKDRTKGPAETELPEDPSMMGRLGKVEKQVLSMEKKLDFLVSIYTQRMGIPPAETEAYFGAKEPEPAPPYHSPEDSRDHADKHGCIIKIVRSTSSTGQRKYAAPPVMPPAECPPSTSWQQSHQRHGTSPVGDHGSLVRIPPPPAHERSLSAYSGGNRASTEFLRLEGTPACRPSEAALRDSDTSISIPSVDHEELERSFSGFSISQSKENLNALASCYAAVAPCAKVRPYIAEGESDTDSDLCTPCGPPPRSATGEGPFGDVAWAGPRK
KCNQ2 enhance baseline: also measured in KCNQ2 enhance; calls as there; B-score; compound at 10 µM; measured here: initial fluorescence intensity artifact check;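 brightness before thallium and not channel activity; 0 = typical well and far values either way flag optical interference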
Starred values were filed as active, the others as inactive. A portion of the library; count on the stated rates, not on these rows.

#	KCNQ2 enhance	KCNQ2 enhance baseline	mol
1	0.45	-0.84	O=C1CC(N2CCN(c3ccccc3)CC2)C(=O)N1c1cccc(Cl)c1 (stereo not given)
2	0.81	0.04	CCCNc1c(NS(=O)(=O)c2ccc(OC)c(OC)c2)c(=O)oc2ccccc12
3	1.2	1	Cc1ccc(C(=O)NC2CCS(=O)(=O)C2)cc1S(=O)(=O)N1CCCCC1 (stereo not given)
4	0.33	0.44	CC(O)CNc1nc2c(c(=O)n(Cc3cccc(Cl)c3)c(=O)n2C)n1C (stereo not given)
5	1.7	-1.9	CCOc1ccc(CCNC(=O)c2cc(C)on2)cc1OCC
6	2.5	-1.1	CCCCCNS(=O)(=O)c1cc2c3c(c1)CCC(=O)N3CCC2
7	0.23	0.19	CC(=O)O[C@H]1CC[C@@]2(C)C(=CC[C@H]3[C@@H]4CC[C@H](C(C)=O)[C@@]4(C)CC[C@@H]32)C1
8	0.99	1.6	COP(=O)(OC)c1nc(-c2ccc([N+](=O)[O-])cc2)oc1N1CCCCC1

Following part.
#	KCNQ2 enhance	KCNQ2 enhance baseline	mol
9	0.26	-0.14	CC1(C)CC(NC(=O)c2cccc3ccccc23)CC(C)(C)N1
10	0.66	0.82	COC(=O)C1CCN(S(=O)(=O)CCNC(=O)c2ccc(F)cc2)CC1
11	0.08	-1.3	CCOC(=O)CCc1c(C)c2ccc(OC3CCCCC3=O)cc2oc1=O (stereo not given)
12	0.03	-1.1	Cc1cc(Cl)ccc1OCCCC(=O)NCC1CCCO1 (stereo not given)
13	0.93	-1.6	Cc1nc(NC(=O)/C=C/c2ccccc2)sc1C(=O)Nc1ccc(Cl)cc1
14	0.38	-0.28	CCC1=NN(C(=O)Cc2ccc([N+](=O)[O-])cc2)C(O)(C(C)(C)C)C1 (stereo not given)
15	1.6	-0.01	COc1cc(NC(=O)Cc2ccccc2)ccc1NC(=O)c1ccccc1
16	2.2	-1.1	Cc1cc(C)nc(/N=C(\N)N2CCCCCC2)n1

(cont.)
#	KCNQ2 enhance	KCNQ2 enhance baseline	mol
17	0.2	-1.1	COc1ccccc1N(CC(=O)NC1CCCC1)C(=O)CNC(=O)c1cccs1
18	0.8	-0.15	N=c1n(Cc2ccccc2)c2ccccc2n1Cc1ccccc1
19	0.23	0.55	O=C(Nc1cccc(C(=O)O)c1)/C(=C\c1ccc2c(c1)OCO2)NC(=O)c1ccco1
20	0.4	-0.22	CC(C)OC(=O)CSc1nnc(-c2cnccn2)n1-c1ccccc1
21	0.04	0.66	COCCCn1c2nc3ccccc3nc2c2c(=O)n(-c3ccccc3OC)c(C)nc21
22	0.98	-1.5	Cc1nc2c(c(-c3ccccc3)c1C#N)C(=O)c1ccccc1-2
23	0.06	0.02	COc1cc(C(=O)NCCc2ncccc2C)ccc1OC1CCN(C(C)=O)CC1
24	0.02	-0.34	CCOC(=O)C1(Cc2cccc(OC)c2)CCN(Cc2cccc3c2OCO3)CC1

Next section.
#	KCNQ2 enhance	KCNQ2 enhance baseline	mol
25	1.9	-2.4	Cn1cc(C(=O)N/N=C/c2ccc3c(c2)OCO3)c2ccccc21
26	0.23	0.77	CCn1c(SCC(=O)OC)nc2sc3c(c2c1=O)CC(C)(C)OC3
27	0.73	0.01	Cc1cccc(NC(=O)c2cc(S(=O)(=O)N3CCC4(CC3)OCCO4)ccc2F)c1
28	0.11	1.5	Cc1ccc(NC(=O)CN(C)S(=O)(=O)c2cccs2)cc1F
29	1.3	0.91	CCOC(=O)/C(C#N)=c1/s/c(=C2\C=Cc3ccccc3N2CC)c(=O)n1CC
30	1.4	-3.4	COc1ccccc1C(=O)N1C(CC(=O)Nc2ccccc2C)C(=O)NC2CCCCC21 (stereo not given)
31	1.2	-0.01	Nc1nc(N)c2sc3nc4c(cc3c2n1)CCC4
32	0.74	0.44	O=C(Nc1cc(C(F)(F)F)ccc1N1CCOCC1)c1ccco1

Continuation.
#	KCNQ2 enhance	KCNQ2 enhance baseline	mol
33	1.2	-0.34	C/C(=N\NC(=O)c1ccccc1)c1cccc(Br)c1
34	0.31	1.9	CC(C)Cn1c(SCC(=O)N2CCc3ccccc3C2)nc2cc(Cl)ccc2c1=O
35	0.22	0.19	CN1CCC(=C(c2ccc(Cl)cc2)c2ccccn2)CC1
36	1	0.2	CCc1ncc(C)[nH]1
37	0.03	-0.06	COC(=O)COc1ccc(S(=O)(=O)Nc2ccc(NC(C)=O)cc2)cc1
38	0.03	0.66	CN1C(=O)[C@H]2[C@@H](/C=C/c3ccccc3)N3C(=O)CN(CC4CC4)C(=O)[C@@]3(C)[C@H]2C1=O
39	2.4	-0.06	NC(=O)C1CCN(C(=O)C2(NC(=O)Nc3cccc(F)c3)CCCCC2)CC1
40	0.01	-2.2	O=C(Nc1nnc(S(=O)(=O)N2CCN(c3ccc(F)cc3)CC2)s1)c1ccccc1

Next section:
#	KCNQ2 enhance	KCNQ2 enhance baseline	mol
41	0.51	0.46	Cc1ccccc1NC(=O)NCCCN1CCCC1=O
42	1.2	3.3	O=c1ccccn1CCOc1ccccc1Cl
43	0.27	0.5	COc1ccc(C2/C(=C(/O)c3ccccc3)C(=O)C(=O)N2C)cc1 (stereo not given)
44	1.3	0.19	CC(=O)Nc1ccc(S(=O)(=O)Nc2c(C)n(C)n(-c3ccccc3)c2=O)cc1
45	0.75	-0.06	COc1cccc(C(=O)Cn2c(N3CCCCC3)nc3c2c(=O)n(C)c(=O)n3C)c1
46	0.42	1.5	O=C(c1cccc(Cl)c1)N1CCC(=O)N(C(CO)Cc2ccccc2)CC1 (stereo not given)
47	1.5	-1.4	Clc1ccc(-c2nnc3n2CCCC3)cc1Cl
48	0.73	-1.3	COc1ccccc1/C=C1\SC(=S)N(CCC(=O)Nc2ccc(C(=O)O)c(O)c2)C1=O

(listing goes on)
#	KCNQ2 enhance	KCNQ2 enhance baseline	mol
49	0.05	-1.7	CC(C)Cc1ccc(S(=O)(=O)Nc2ccc3[nH]c(=O)[nH]c3c2)cc1
50	0.72	-2.1	COC(=O)c1ccc(CNC(=O)COC(=O)c2cc(Cl)nc(Cl)c2)cc1
51	0.63	-0.2	CCOc1ccc(S(=O)(=O)N2CCN(c3ncccn3)CC2)cc1
52	0.16	-0.21	COc1cc(CNc2ccc(S(N)(=O)=O)cc2)ccc1OCC(=O)NC1CCCCC1
53	0.73	-1.6	Cc1ccc(C(=O)NC(=S)N2CCN(C)CC2)cc1Br
54	1.7	-0.83	CC1CCCCC1NC(=O)CN(C)S(=O)(=O)c1cccc2cccnc12 (stereo not given)
55	1.1	-1.2	NC(=O)c1ccccc1NC(=O)/C=C/c1ccc(Cl)cc1
56	1	0.24	COc1cc(C(=O)NC(=S)Nc2nccs2)cc(OC)c1OC

Later entries:
#	KCNQ2 enhance	KCNQ2 enhance baseline	mol
57	2.1	0.03	COc1ccc(CC(=O)NNC(=O)COc2ccc(C)cc2)cc1S(=O)(=O)N1CCOCC1
58	1	1.3	N=C1SC(c2ccccc2)C(=O)N1c1ncc(Cc2ccccc2)s1 (stereo not given)
59	0.03	0.61	COc1ccc2[nH]c3c(c2c1)CCN1C(=O)N([C@@H](C)C(=O)NCC2CCCO2)C(=O)[C@]31C (stereo not given in full)
60	2	-0.1	O=C(/C=C/c1cccc([N+](=O)[O-])c1)Nc1cccc(NC(=O)c2cccs2)c1
61	0.01	-2.5	NC(=O)CNC(=O)[C@@H]1CC2(CC(c3cccc([N+](=O)[O-])c3)=NO2)CN1C(=O)c1ccccc1 (stereo not given in full)
62	0.23	-1.4	Cn1cc(CN2CCN(Cc3ccccc3)C(CCO)C2)c(-c2ccccc2)n1 (stereo not given)
63	2.1	2.3	O=C(Nc1nc2ccccc2s1)c1ccc2c(c1)OCO2
64	0.03	0.88	COc1ccc2c(c1)CCc1cnc(N)nc1-2

Continued.
#	KCNQ2 enhance	KCNQ2 enhance baseline	mol
65	0.71	0.37	CCOc1cc(/C=C2/NC(=O)N(CC(=O)OC)C2=O)ccc1O
66	1.8	-1.1	Oc1ccc(N=Nc2cccc(C(F)(F)F)c2)cc1C=Nc1ccc(N2CCOCC2)cc1
67	0.25	1.1	CNS(=O)(=O)c1cccc(C(=O)NCC2CCCCC2)c1
68	0.6	-1.4	COc1ccccc1C(=O)N=C1NC(=O)CC2C(=O)NCCN12 (stereo not given)
69	0.63	1.4	COc1ccccc1OCC(=O)N1CCCCCCC1
70	1.7	1.8	O=C(Nc1ccc(S(=O)(=O)Nc2ncccn2)cc1)c1ccc(Cl)c([N+](=O)[O-])c1
71	1.3	-0.57	Cc1ccc(-c2cc(C(=O)OCC(=O)N(C)C3CCS(=O)(=O)C3)c3ccccc3n2)c(C)c1 (stereo not given)
72	2.4	-0.01	COc1cc2c(-c3ccccc3)c(C)oc2cc1/C=N/NC(N)=S

Following part
#	KCNQ2 enhance	KCNQ2 enhance baseline	mol
73	0.03	0.64	COc1ccc(C2NC(=O)NC3=C2CCc2ccccc23)cc1 (stereo not given)
74	0.02	-1.9	O=C(NCC1CCCO1)c1ccccc1-c1nc(-c2ccccc2F)no1 (stereo not given)
75	0.02	-0.8	CC(=O)Nc1ccc(S(=O)(=O)NCCc2cc3c(C)ccc(C)c3[nH]c2=O)cc1
76	0.03	-0.11	Cc1ccc2nc(SCC(=O)NC3CC3)[nH]c2c1
77	0.08	0.8	CN(C)c1ccc(CNc2nc(-c3ccccc3)nn2S(C)(=O)=O)cc1
78	0.52	-0.03	CCN(CC)S(=O)(=O)c1ccc2c(c1)nc(SCC(=O)NCC1CCCO1)n2CC (stereo not given)
79	0.17	0.4	Cc1c(Cl)cccc1NC(=S)N(CCN(C)C)C(C)c1ccccn1 (stereo not given)
80	0.07	0.62	Cc1cccc(C)c1NS(=O)(=O)c1c(C)[nH]c(=O)[nH]c1=O

(further entries)
#	KCNQ2 enhance	KCNQ2 enhance baseline	mol
81	1.9	-0.67	COCCCNC(=O)CS(=O)Cc1nc(-c2cccc(OC)c2)oc1C (stereo not given)
82	1.2	-1.3	CCc1c(C(=O)Nc2ccc(OC)c(Cl)c2)[nH]c(C)c1C(C)=O
83	0.08	-0.69	COc1ccc(C(=O)n2cc(C(=O)c3cc(C)ccc3O)cn2)cc1OC
84	1.4	0.7	O=C(NC1CC1)C1CCN(C(=O)c2ccc(Cl)cc2Cl)CC1
85	1.8	0.75	CCC(=O)Nn1c(C2CCC2)nc2ccccc2c1=O
86	0.38	0.38	Cc1cc(C)n(C(=O)c2cc(F)c(F)cc2C)n1
87	0.18	1	O=C(CCCC(=O)N1CCN(c2ccccc2F)CC1)N1CCN(c2ccccc2F)CC1
88	0.56	1.7	NS(=O)(=O)c1cccc(NC(=O)COC(=O)c2cc(-c3ccc(Cl)cc3)nc3ccccc23)c1

New compounds follow:
#	KCNQ2 enhance	KCNQ2 enhance baseline	mol
89	0.03	0.71	Oc1ccccc1Nc1ccccn1
90	0.12	0.27	O=C(COc1ccc(/C=N/NC(=O)c2ccc(O)cc2)cc1)Nc1ccc([N+](=O)[O-])cc1
91	0.11	-1.3	COc1ccc(-n2c(=S)[nH]c3cc(C(=O)NCc4cccnc4)ccc3c2=O)cc1
92	0.16	-0.03	O=C(NCCCN1CCOCC1)c1ccccc1
93	0.99	0.05	CCOC(=O)N1CCN(Cc2nc3cc([N+](=O)[O-])ccc3n2CC)CC1
94	0.5	1.9	NC(=O)CC[C@H](NC(=O)c1ccc(F)cc1)C(=O)OCC(=O)NCc1ccc(F)cc1
95	0.37	-1.2	CC(=O)NC(=S)Nc1ccc(NC(=S)NC(=O)c2ccc([N+](=O)[O-])cc2)cc1
96	0.22	1.4	O=C(NCc1ccccc1)Oc1cccc(Cl)c1

Other structures follow.
#	KCNQ2 enhance	KCNQ2 enhance baseline	mol
97	0.61	-0.62	Cc1coc(NC(=O)CSc2nc(-c3ccc(Cl)cc3)cc(C(F)(F)F)c2C#N)n1
98	2.1	-0.59	CCN=C(Nc1ccc(Cl)cc1)c1cccnc1
99	0.01	-1.8	O=C1COc2ccc(C(=O)COC(=O)Cn3cnc4ccccc43)cc2N1
100	1.8	-0.67	N#CCSc1nnc(CNc2ccc(F)cc2)o1
101	0.27	0.07	Cc1ccccc1CN(c1ccc(C(=O)NCC2CCCO2)cc1)S(C)(=O)=O (stereo not given)
102	0.48	-1.9	CCOc1cc(S(=O)(=O)NCCc2ccc(OC)c(OC)c2)c(OCC)cc1-n1cnnn1
103	0.64	-1.8	O=S(=O)(c1ccc(Cl)c(F)c1)N1CCC(c2nc(-c3ccncc3)no2)CC1
104	1.9	-0.43	Cc1nc(NCc2ccccn2)c2ccccc2n1

The listing continues.
#	KCNQ2 enhance	KCNQ2 enhance baseline	mol
105	0.4	-2.1	O=C(Nc1ccccc1)Nc1nc2ccccc2s1
106	0.18	-0.19	COc1ccc(F)cc1C(=O)C1CCCN(Cc2ccc(Sc3nncn3C)o2)C1 (stereo not given)
107	1.1	2.1	N#Cc1c(Cl)nsc1NC(=O)c1ccccc1
108	0.49	2	CC(=O)c1cccc(NC(=O)C(C)OC(=O)CNC(=O)c2ccc(C)s2)c1 (stereo not given)
109	0.97	-0.31	Cc1ccnc(NC(=O)CCCNC(=O)c2ccc(Cl)cc2)c1
110	1.3	1.2	COc1cc(N)c(Cc2nccc3cc(OC)c(OC)cc23)cc1OC
111	0.04	0.64	COc1cc(NC(=O)C2CCCO2)c(OC)cc1Cl (stereo not given)
112	1.2	0.49	O=C(CSCc1ccco1)NC1CCCC1
113	0.13	-0.72	O=C(CNC1CCCC1)Nc1ccc(S(=O)(=O)N2CCCCC2)cc1
114	0.88	1.5	CC(C)CNC(=O)COC(=O)c1ccccc1SCC(=O)NCC(C)C
115	0.58	-0.06	Cc1nnc(SCc2ccccc2)n1CC1CCCO1 (stereo not given)
